Bioassay records (PubChem)
CtBP-E1A blk – blocks the CtBP interaction with E1A | activity change, % (no concentration beside the values) | AlphaScreen GST-E1A/His-CtBP binding, 1536-well; active compounds read low; control for the full effect not named in the record | actives 0.49% (n = 340,000); in the data active means activity change below about -65%; inconclusive means about -30% to -65%; inactive means above about -30%; also: % is scaled to controls: 0 for no effect and ±100 for the full control effect
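AlphaScreen with 125 nM GST-E1A and 125 nM His-CtBP (5X stocks) in Tris pH 8.0, 300 mM NaCl, BSA, Tween 20, TCEP. Compounds preincubated 2 h at 37 deg C, then glutathione donor/nickel acceptor beads added for 1 h at 37 deg C in dark.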
PINK1 expr mod – modulators of PINK1 expression | PINK1 immunofluorescence, high-content cytometry, 24 h | Potency, µM (titrated, usually from 76.6 µM), inactives show at the highest dose activation (PINK1 increase), hits mostly activators | actives 0.2% (n = 410,000); active = well fitted activation curve with a large enough effect; inconclusive = small, poorly fitted or top-dose-only effect; inactive = flat fitted curve, though single readings scatter; cell line not stated here;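 also: potency is read from the fitted curve at half-maximal effect; % of control where 0% means no effect; nearly all actives have a fitted effect of over 65% in size; a mitochondrial uncoupler was the plate control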
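Stable cell line treated 24 h with compounds at 5 concentrations (CCCP controls), then fixed and immunostained for PINK1 plus nuclear and cell stains; PINK1 immunofluorescence quantified by laser-scanning microplate cytometry.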
D2 agonist – activates the human D2 dopamine receptor. DiscoveRx PathHunter D2 beta-arrestin, luminescence, 90 min; 100% = 57 uM dopamine signal. activation, % (test concentration not listed). actives 0.084% (n = 360,000); in the data active = activation above about 40%; inconclusive = about 15% to 40%; inactive = below about 15%; also: compound concentration not given in the record; the text of the record calls up to 30% inactive
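Agonist mode: compounds alone added to overnight-plated D2 PathHunter cells for 90 min at 37 C, with 57 uM final dopamine (EC100) defining full response. Beta-arrestin recruitment detected by chemiluminescent reagent, read after 1 h at ambient temperature.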
TRPV1 potentiator – potentiators of human vanilloid receptor 1 (TRPV1) | TRPV1-expressing cells, Fluo-8 calcium influx, capsaicin EC20 potentiation; host cell line not named in the record; control for the full effect not named in the record | Q8NER1 | actives 0.02% (n = 320,000) | potentiation, % at 8.33 µM | AID 540277; active means potentiation above 80%; inconclusive means 30% to 80%; inactive means below 30%; also: 0% is about no effect
Target sequence (Q8NER1 whole entry, looked up): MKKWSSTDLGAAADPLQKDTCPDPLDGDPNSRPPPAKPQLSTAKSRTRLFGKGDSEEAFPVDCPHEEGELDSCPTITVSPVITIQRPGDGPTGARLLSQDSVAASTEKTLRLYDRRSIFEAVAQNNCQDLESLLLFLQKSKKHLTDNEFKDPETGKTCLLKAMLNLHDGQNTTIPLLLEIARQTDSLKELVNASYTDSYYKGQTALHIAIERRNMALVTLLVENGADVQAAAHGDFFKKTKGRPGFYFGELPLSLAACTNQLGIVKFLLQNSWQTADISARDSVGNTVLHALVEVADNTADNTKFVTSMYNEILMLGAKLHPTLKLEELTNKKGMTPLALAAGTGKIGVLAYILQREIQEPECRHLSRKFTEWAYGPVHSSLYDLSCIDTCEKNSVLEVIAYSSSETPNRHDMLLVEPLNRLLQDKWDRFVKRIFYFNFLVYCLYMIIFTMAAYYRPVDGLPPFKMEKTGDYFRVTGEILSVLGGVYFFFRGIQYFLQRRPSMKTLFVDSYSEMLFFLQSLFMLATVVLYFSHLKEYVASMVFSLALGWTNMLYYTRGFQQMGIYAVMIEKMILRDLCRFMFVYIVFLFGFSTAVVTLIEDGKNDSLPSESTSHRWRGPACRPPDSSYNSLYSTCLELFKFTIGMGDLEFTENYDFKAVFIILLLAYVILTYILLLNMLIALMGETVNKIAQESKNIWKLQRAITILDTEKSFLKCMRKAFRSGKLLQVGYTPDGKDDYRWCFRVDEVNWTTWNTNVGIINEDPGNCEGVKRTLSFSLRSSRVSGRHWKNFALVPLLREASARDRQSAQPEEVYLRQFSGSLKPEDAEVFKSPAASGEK
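TRPV1-expressing cells were cultured overnight at 35.5C and loaded with Fluo-8 calcium dye for 40 to 90 min at room temperature. After a 10 s baseline, compound was added and calcium influx was read kinetically for 3 min (ex 480/em 520 nm).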
Six1-Eya2 inh – blocks human Six1 binding to Eya2. AlphaScreen GST-Six1/His-Eya2 binding, biochemical; active compounds read low; control for the full effect not named in the record. activity change, % (no concentration beside the values). actives 0.56% (n = 360,000). AID 651725; in the data active = activity change below about -65%; inconclusive = about -30% to -65%; inactive = above about -30%; also: % is scaled to controls: 0 for no effect and ±100 for the full control effect
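Homogeneous AlphaScreen proximity assay pairing GST-Six1 with His-tagged Eya2 (added as 5X mix: 250 nM and 500 nM) in 50 mM Tris pH 8.0, 300 mM NaCl, 1 mM TCEP. Glutathione donor and nickel acceptor beads; 1 h, 37 °C, dark.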
Sfp PPTase inh – inhibitors of Bacillus subtilis Sfp phosphopantetheinyl transferase. Biochemical Sfp PPTase activity, qHTS. Potency, µM, without a hit: max response, negative = inhibition, usual class: inhibitors. Q9F4F7. actives 3.5% (n = 310,000); active = well fitted inhibition curve with a large enough effect; inconclusive = small, poorly fitted or top-dose-only effect, or another doubt; inactive = no such curve, though single readings can be large or run the other way;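 also: the enzyme is Sfp with the accession as filed and its product quenches rhodamine fluorescence; potency is read from the fitted curve at half-maximal effect; 0% = enzyme reaction without inhibitor and -100% = no enzyme wells; top concentration of the series not given in the record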
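Fluorescence-quenching assay: 15 nM Sfp-PPTase preincubated 15 min at room temperature with compound, then 5 uM rhodamine-CoA and 12.5 uM BHQ-2-labelled YbbR peptide added. Fluorescence (ex 525/em 598 nm) read at start and after 30 min; difference gives rate.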
D2 potentiator – positive allosteric modulators of human D2 dopamine receptor; P14416; DiscoveRx D2 beta-arrestin cells, luminescence, 90 min; 100% = 57 uM dopamine signal; potentiation, % (concentration not given with the values); actives 0.23% (n = 360,000); AID 624464; active = potentiation of 50% or more; inconclusive = 30% to 50%; inactive = 30% or less;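 also: compound concentration not given in the record; tested on top of an EC20 dose of dopamine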
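D2 cells co-treated with compound plus 50 nM dopamine (EC20) for 90 min at 37 deg C to detect potentiation. Beta-arrestin recruitment was read as enzyme-fragment luminescence after 1 h at ambient temperature. Full response was set by 57 uM dopamine.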
An asterisk follows results filed as active; ? = inconclusive; . = not tested or not shown; & = joins results of further samples; [ ] = dose if it differs, or a comment.

Fields – CtBP-E1A blk, PINK1 expr mod, D2 agonist, TRPV1 potentiator, Six1-Eya2 inh, Sfp PPTase inh, D2 potentiator
- O=C(C1CCC(CNS(=O)(=O)c2ccccc2)CC1)N1CCCCC1 (stereo unspecified)
  -1, -2.1%, 4.7, 28, 2, 8%, -1
- Cc1cc(C)c(/C=C(\C#N)C(N)=S)c(C)c1
  ., 2.9%, -4.3, -8, 0, 2%, -15
- NS(=O)(=O)c1ccc(CCNC(=O)c2ccc(C(=O)c3ccccc3)cc2)cc1
  -6, 1.1%, -1.6, -1, -9, 10%, -3
- Cc1ccc(/C=c2\sc3nc(-c4ccccc4Br)nn3c2=O)o1
  -1, 0.4%, -2.4, ?, -19, ?, -11
- Cc1ccc(CN2C(=O)N/C(=C/c3cc(C)n(-c4ccccn4)c3C)C2=O)cc1
  -4, 8.2%, -7.4, 8, -14, -9%, -3
- COc1ccc(C(=O)Nc2nnc(S(=O)(=O)N3CCOCC3)s2)cc1
  4, 0.8%&-0.4%, -0.9, 5, 4, 25%, -1
- COc1cc(/C=C2\OC(=O)c3c(OC)cccc32)ccc1O
  -5, 21%, -1.5, -8, 2, 3%, 12
- O=[N+]([O-])c1ccc(C(=S)N2CCC(Cc3ccccc3)CC2)cc1
  ?, 1.6%, -1.2, 8, ?, 21%, 10
- O=C(CC(=O)N/N=C/c1ccccc1)NCc1ccccc1
  4, 1.4%, -2.8, -1, 0, 22%, -2
- CCc1ccc2c(c1)/C(=N/OC)C(=O)N2
  -5, -2.6%, -3.9, 10, -6, -10%, -7
- O=C(CSc1n[nH]c(=O)n1C1CC1)N1N=C(c2ccc(Cl)cc2)CC1c1ccco1 (stereo unspecified)
  0, 0.4%, -4.8, -26, -9, 4%, -11
- O=C(Nc1cccc(Cl)c1)Nc1cc(S(=O)(=O)N2CCOCC2)ccc1N1CCCC1
  -6, 2.3%, -0.5, -2, -5, -18%, -15
- CCN=C(NCC)SC1CC(=O)N(c2ccc(OC)cc2)C1=O (stereo unspecified)
  3, ., 1.8, -4, 0, 9%, 8
- O=C(CCc1nc2ccccc2c(=O)[nH]1)Nc1cc(C(F)(F)F)ccc1N1CCOCC1
  8, 14%, -4.3, 2, -2, ., 5
- N#CC1=C2N=C(N)c3ccccc3N2C2=C(C(=O)CCC2)C1c1ccc(F)cc1 (stereo unspecified)
  -1, -0.9%, -0.7, 9, -7, 9%, -16
- O=C1CC(c2c[nH]c3ccccc23)C(=O)N1 (stereo unspecified)
  0, 0.2%, -0.6, 1, 1, 16%, -3
- COc1ccc(CNC(=O)COC(=O)/C=C/c2cccs2)cc1
  11, 6.4%, -0.3, 0, 7, -9%, -13
- Cc1cc(NC(=O)COC(=O)C2CCN(S(=O)(=O)c3ccccc3)CC2)c([N+](=O)[O-])cc1C
  1, -1.0%, -1.9, 25, -25, 6%, -37
- COc1cc(/C=N/NC(=O)c2ccc(-n3cccc3)cc2)ccc1O
  -19, 3.9%, 0.1, -7, -29, -2%, -25
- CCCCCCNc1nc(NCc2ccco2)nc(OCC)n1
  -1, -0.7%, -4.4, 8, -8, -3%, -8

Single records, from the list above:
COc1cc(/C=C2\OC(=O)c3c(OC)cccc32)ccc1O in the list: CtBP-E1A blk: -5; PINK1 expr mod: 21%; D2 agonist: -1.5; TRPV1 potentiator: -8; Six1-Eya2 inh: 2; Sfp PPTase inh: 3%; D2 potentiator: 12
O=C(CSc1n[nH]c(=O)n1C1CC1)N1N=C(c2ccc(Cl)cc2)CC1c1ccco1 (stereo unspecified) in the list: CtBP-E1A blk: 0; PINK1 expr mod: 0.4%; D2 agonist: -4.8; TRPV1 potentiator: -26; Six1-Eya2 inh: -9; Sfp PPTase inh: 4%; D2 potentiator: -11
CCc1ccc2c(c1)/C(=N/OC)C(=O)N2 in the list: CtBP-E1A blk: -5; PINK1 expr mod: -2.6%; D2 agonist: -3.9; TRPV1 potentiator: 10; Six1-Eya2 inh: -6; Sfp PPTase inh: -10%; D2 potentiator: -7

Limited to Six1-Eya2 inh (three entries from above):
SMILES,Six1-Eya2 inh
CCc1ccc2c(c1)/C(=N/OC)C(=O)N2,-6
O=C(CSc1n[nH]c(=O)n1C1CC1)N1N=C(c2ccc(Cl)cc2)CC1c1ccco1 (stereo unspecified),-9
O=C(Nc1cccc(Cl)c1)Nc1cc(S(=O)(=O)N2CCOCC2)ccc1N1CCCC1,-5

Pulled by compound from the list above, four records:
Fields – CtBP-E1A blk, PINK1 expr mod, D2 agonist, TRPV1 potentiator, Six1-Eya2 inh, Sfp PPTase inh, D2 potentiator
- CCN=C(NCC)SC1CC(=O)N(c2ccc(OC)cc2)C1=O (stereo unspecified)
  3, ., 1.8, -4, 0, 9%, 8
- COc1cc(/C=N/NC(=O)c2ccc(-n3cccc3)cc2)ccc1O
  -19, 3.9%, 0.1, -7, -29, -2%, -25
- COc1ccc(CNC(=O)COC(=O)/C=C/c2cccs2)cc1
  11, 6.4%, -0.3, 0, 7, -9%, -13
- Cc1cc(C)c(/C=C(\C#N)C(N)=S)c(C)c1
  ., 2.9%, -4.3, -8, 0, 2%, -15

(further entries)
Fields – CtBP-E1A blk, PINK1 expr mod, D2 agonist, TRPV1 potentiator, Six1-Eya2 inh, Sfp PPTase inh, D2 potentiator
- CC1(C)Cc2c(sc(NC(=O)C(=O)N3CCOCC3)c2C#N)CO1
  2, 0.2%, -2.1, -2, 1, -18%, 5
- O=C(NCCCN1CCN(CCCNC(=O)c2cccc([N+](=O)[O-])c2)CC1)c1cccc([N+](=O)[O-])c1
  2, -0.5%, 3.8, -17, -3, 0%, -8
- NC(=S)Nc1nc2ccccc2s1
  2, -1.8%, -12, -8, 1, 50µM*, -12
- O=C(CN(Cc1ccc2c(c1)OCO2)C(=O)CNC(=O)c1ccco1)NC1CCCCC1
  -2, -2.5%, -4.7, ?, 0, 8%, -33
- CC1=C(C(=O)N(C)C)CC(CC(=O)NC(c2ccccc2)c2ccccc2)C(=O)N1Cc1ccc(F)cc1 (stereo unspecified)
  7, 1.2%, -3.1, ., -2, ., 2
- CC(C)(C)SCCNC(=O)Nc1ccccc1
  14, 0.9%, -0.8, -15, 4, 15%, -10
- CC1(c2ccc(OC(F)F)cc2)NC(=O)N(/N=C/c2c(O)ccc3ccccc23)C1=O (stereo unspecified)
  16, 4.9%, -5.8, 5, 1, 9%, 7
- Cc1ccc(CNC(=O)c2ccc(CS(=O)(=O)c3ccccc3)o2)cc1
  ., 1.4%, -4.2, 19, -10, 14%, -8
- NC(=O)c1nn(-c2ccccc2)c(=O)cc1O
  3, 3.2%, -1.8, 5, 2, 9%, 6
- CC1(C)N=C(/C=N/O)CN1O
  3, -0.4%, 0.7, -1, -7, -5%, -16
- CC(=O)Nc1cccc2c1OCCO2
  4, -1.1%, -1.8, 9, 0, 10%, -4
- CN(CC(=O)Nc1ccc(N2CCOCC2)cc1)C(=O)c1ccc(O)c(Cl)c1
  0, 0.1%, -3.5, 11, 1, 14%, -15
- CC(Oc1ccc(S(=O)(=O)N2CCCC2)cc1[N+](=O)[O-])C(=O)N(C)c1ccccc1 (stereo unspecified)
  0, -1.3%, -2.2, 3, 0, ., -22
- Cc1noc(C)c1NC(=O)Nc1cccc2c1O[C@@H](CN(C)Cc1ccc3c(c1)OCO3)[C@@H](C)CN([C@H](C)CO)C2=O
  0, -0.3%, -2.0, ., 26, ., -4
- COc1ccc(C(=O)/C=C/C(=O)N(CC(=O)NC2CCCCC2)Cc2ccc(F)cc2)c(O)c1
  -1, -1.0%, -3.6, 24, -1, 8.9µM*, -4
- COCCn1c(SCC(=O)Nc2cc(C)on2)nnc1C(C)C
  -14, -1.0%, -5.4, 1, 7, 6%, -19
- CC(C)(/C=N/O)/[N+]([O-])=C/c1ccccc1C(F)(F)F
  17, 0.2%, 1.1, 0, 9, 4%, -9
- O=C(O)/C=C\C(=O)Nc1cccc(C(=O)Nc2cccc(O)c2)c1
  ., 0.7%, 0.8, 10, ?, 3%, 0
- CN(CCOc1ccccc1)C(=O)CCc1c[nH]c2ccccc12
  -6, 2.5%, 0.2, 29, -9, 1%, -6
- O=C(CC(O)(C(F)(F)F)C(F)(F)F)Nc1ccc(Cl)c(Cl)c1
  18, ?, 3.5, 12, -1, 18%, 13

Additional compounds.
Fields – CtBP-E1A blk, PINK1 expr mod, D2 agonist, TRPV1 potentiator, Six1-Eya2 inh, Sfp PPTase inh, D2 potentiator
- O=C(NC1CCS(=O)(=O)C1)c1cccc(S(=O)(=O)N2CCCCCC2)c1 (stereo unspecified)
  4, 0.6%, 3.6, 1, -5, 6%, -7
- C/C=C/C=C/C(=O)N1CC[C@]23c4ccccc4N[C@H]4N(C)c5cccc6c5[C@]42CCN([C@H]6C2OC2(C)C)[C@H]13 (stereo partly specified)
  1, 3.2%, 5.7, -13, -19, -12%, 1
- O=C(CN(Cc1cccs1)C(=O)CNS(=O)(=O)c1ccc(F)cc1)NCc1ccco1
  -3, -0.1%, -1.3, 5, 1, 8%, -10
- CCCCNC(=O)CSc1nc2ccsc2c(=O)n1C1CCN(C(=O)OCC)CC1
  -6, 6.5%[38.3 µM], -1.7, -4, -10, 10%, 10
- CC(NC(=S)NCCc1ccccc1)C(c1cccs1)N1CCN(Cc2ccccc2)CC1 (stereo unspecified)
  -23, 16µM*, -6.9, 14, -3, 12%, -16
- O=C(/C(=C/O)N=Nc1ccccc1)c1ccncc1
  -6, 3.9%, -5.0, 3, -13, 5%, -12
- O=C(c1ccc([N+](=O)[O-])cc1)N1CCSC1c1ccccc1 (stereo unspecified)
  -4, -1.3%, 0.2, -4, -11, -12%, -8
